Bioassay records from PubChem BioAssay.
Mtb bLac sens: beta-lactam sensitization of Mtb H37Rv | inhibition, % at 25 µM | M. tuberculosis H37Rv growth with meropenem, percent inhibition; hits of this screen are not shown here | hit rate 0.27% among 330,000;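 active = about 74% or more and at least 40 points above the plate without the antibiotic, then above 30% in a dose series; inconclusive = first-round hits that could not be retested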;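 also: growth measured after seven days incubation then overnight dye step; 0% = bacteria only wells and 100% = bacteria with antibiotic; twin plates without the antibiotic show which effects depend on it; some results filed as inactive read as strong as hits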
Mtb growth: M. tuberculosis H37Rv growth inhibitors, H37Rv strain (AID 1626). M. tuberculosis H37Rv growth inhibition; higher % means a stronger effect. inhibition, % at 10 µM, or IC50 in µM where a hit was titrated. hit rate 0.95% among 220,000;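 active = confirmed in a dose series; inconclusive = inhibition above 80% but not taken into the dose series; inactive = below 80% or under 30% at every dose of the series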;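 also: bacteria incubated seven days before Alamar blue readout; 0% = bacteria only wells and 100% = bacteria with antibiotic wells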
YopH PTP inh: blocks Yersinia enterocolitica YopH tyrosine phosphatase. hit rate 0.16% among 140,000. fluorescence Ex485/Em525. inhibition, %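 (about 10 µM by stock and volumes)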. AID 898;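 active = inhibition of 50% or more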;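 also: controls were vehicle for no effect and minimum signal wells for full effect; inactives centre near -20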
RecA intein inh: Mtb RecA intein splicing inhibition | P9WHJ3 | cell-free RecA intein splicing, fluorescence | inhibition, %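 (about 9 µM by stock and volumes)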 | hit rate 0.75% among 290,000 | AID 2221; in the data active = inhibition above about 30%; inconclusive = no clear call, values can overlap the other calls;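 also: 0% = vehicle wells and 100% = reference inhibitor control wells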
Target sequence (P9WHJ3 whole entry, looked up): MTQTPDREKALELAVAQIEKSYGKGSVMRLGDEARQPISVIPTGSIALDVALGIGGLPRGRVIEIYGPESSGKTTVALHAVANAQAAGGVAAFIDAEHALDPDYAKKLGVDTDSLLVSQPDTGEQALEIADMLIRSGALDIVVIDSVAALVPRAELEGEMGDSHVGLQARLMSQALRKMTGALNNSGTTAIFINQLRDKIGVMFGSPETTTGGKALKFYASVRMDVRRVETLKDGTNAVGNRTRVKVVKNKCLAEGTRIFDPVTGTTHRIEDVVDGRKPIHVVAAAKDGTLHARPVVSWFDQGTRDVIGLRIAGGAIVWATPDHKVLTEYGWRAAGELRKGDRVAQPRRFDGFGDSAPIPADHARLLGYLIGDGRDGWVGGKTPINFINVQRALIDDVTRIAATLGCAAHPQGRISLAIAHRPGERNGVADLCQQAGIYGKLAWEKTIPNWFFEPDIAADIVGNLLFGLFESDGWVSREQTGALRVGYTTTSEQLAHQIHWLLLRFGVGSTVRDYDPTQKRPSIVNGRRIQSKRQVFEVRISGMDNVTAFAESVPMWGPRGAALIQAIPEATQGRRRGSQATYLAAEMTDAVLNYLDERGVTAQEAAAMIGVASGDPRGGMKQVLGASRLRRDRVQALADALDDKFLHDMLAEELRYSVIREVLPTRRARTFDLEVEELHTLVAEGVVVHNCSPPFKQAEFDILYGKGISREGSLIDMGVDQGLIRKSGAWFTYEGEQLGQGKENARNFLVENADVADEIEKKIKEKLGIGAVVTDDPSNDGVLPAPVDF
Arbovirus anti: antivirals against arbovirus infection | arbovirus infection cell-based antiviral screen | inhibition, % at 10 µM | hit rate 0.37% among 200,000;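 active = inhibition from about 30%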;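 also: bluetongue infection of BSR cells; cell survival read as ATP light after 72 h; 0% = infected wells without compound and 100% = uninfected wells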
Arbovirus anti repeat: recorded beside Arbovirus anti, whose call it bears; inhibition, %; measured here: 10K subset replicate screen; many hits read low in the repeat;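 first of two repeat runs on a subset; 0% = infected and 100% = uninfected wells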
Numbers without * were called inactive.

For COc1ccc(C)cc1S(=O)(=O)N1CCN(S(=O)(=O)c2cc(C)ccc2OC)CC1 the results were Mtb bLac sens inconclusive, Mtb growth -6.3%, YopH PTP inh -13.3, RecA intein inh -2.8, Arbovirus anti 15.2 and Arbovirus anti repeat 1.9.
Screening CCC1CCCCN1C(=O)CSc1nnc(-c2ccc3c(c2)OCCO3)o1 (centres undefined) returned Mtb bLac sens 1.8, Mtb growth 5.3%, YopH PTP inh -32.0, RecA intein inh -0.9 and Arbovirus anti 7.1.
O=S(=O)(Nc1ccc(-c2ccc3nncn3n2)cc1)c1ccccc1Cl was read as Mtb bLac sens -5.5 and RecA intein inh -1.9.
Screening C=CCOC(=O)C1=C(C)OC(N)=C(C#N)[C@@]12C(=O)N(CC(N)=O)c1ccccc12 returned Mtb bLac sens -11.3, Mtb growth -17.5%, YopH PTP inh -2.1, RecA intein inh 4.4 and Arbovirus anti -2.8.
For N#Cc1cc([N+](=O)[O-])ccc1NC(=O)COC(=O)CCC1CCCCC1 the results were Mtb bLac sens -6.6, Mtb growth 5.4%, RecA intein inh 59.9* and Arbovirus anti 2.3.
`CCOC(=O)c1c(-c2ccccc2)oc2cc(CN(C)C)c(O)c(CN(C)C)c12` gave Mtb bLac sens -10.5, YopH PTP inh -13.0 and RecA intein inh 0.4.
NC(=O)COC(=O)c1cc(-c2ccco2)nc2ccccc12 was read as Mtb bLac sens -2.9, Mtb growth 1.5% and RecA intein inh -18.2.
Screening COc1ccccc1NC(=O)CCc1c(C)nc2c(-c3ccc(F)cc3)c(C)nn2c1C returned Mtb bLac sens -9.5, Mtb growth -2.1% and RecA intein inh -5.1.
CCN(CC)S(=O)(=O)c1cc([N+](=O)[O-])ccc1NNC(=O)Nc1ccccc1 was read as Mtb bLac sens 2.1, Mtb growth -4.8%, YopH PTP inh -24.9, RecA intein inh 0.7 and Arbovirus anti 4.5.
O=C1N(c2cccc(Cl)c2)C(c2ccc(Cl)cc2)N2CCCN12 (centres undefined) was read as Mtb bLac sens 2.1, Mtb growth 5.1%, YopH PTP inh 1.3, RecA intein inh 6.0 and Arbovirus anti 0.1.
For CCN(C(=O)COC(=O)/C=C/c1c(C)nn(-c2ccccc2)c1C)C1CCS(=O)(=O)C1 (centres undefined) the results were Mtb bLac sens -4.7, Mtb growth 8.1% and RecA intein inh 0.7.
For CN(C)CCCN(C(=O)c1ccc(S(=O)(=O)N2CCCCCC2)cc1)c1nc2ccc(F)cc2s1 the results were Mtb bLac sens -0.9 and RecA intein inh 2.6.
For CC(=O)c1ccc(NC(=O)CCCCCn2nnc3ccccc3c2=O)cc1 the results were Mtb bLac sens -4.8 and RecA intein inh 2.8.
COC(=O)c1ccccc1NC(=O)c1cc(-c2ccc(C)cc2)on1 was read as Mtb bLac sens -6.4, Mtb growth -5.8%, YopH PTP inh 19.6, RecA intein inh 3.1 and Arbovirus anti 22.9.
`Cc1nn(C(C)C(=O)N2CCCCC2)c(=O)c2c1sc1ccccc12` (centres undefined) gave Mtb bLac sens -2.3, YopH PTP inh -40.2, RecA intein inh -5.9 and Arbovirus anti 5.6.
For CCC(=O)c1ccc(OCC(=O)OCC(=O)NC2CCCC2)cc1 the results were Mtb bLac sens -3.6 and RecA intein inh -4.8.
For Cc1cc(C)c2c(=O)c(/C=C3\NC(=S)NC3=O)coc2c1 the results were Mtb bLac sens 1.3 and RecA intein inh -0.9.
For S=c1[nH]nc(-c2ccco2)n1/N=C/C=C/c1ccco1 the results were Mtb bLac sens 1.9, Mtb growth -7.2%, YopH PTP inh -25.4, RecA intein inh 10.1 and Arbovirus anti -3.4.
Cc1nc(N2CCCCCC2)c2ccccc2n1 was read as Mtb bLac sens -3.3 and RecA intein inh -2.5.
`CCOC(=O)c1c(N)sc(C(=O)N2CCCC2)c1C` gave Mtb bLac sens 3.4, Mtb growth 1.8%, YopH PTP inh -18.8, RecA intein inh 0.6 and Arbovirus anti 0.5.
Screening CC(C)NC(=O)CN1C(=O)CSc2ccc(S(=O)(=O)N3CCCC3)cc21 returned Mtb bLac sens -6.7 and RecA intein inh 4.1.
Screening Cc1ccc(S(=O)(=O)N2CCCCC2)cc1NC(=O)CNCc1ccco1 returned Mtb bLac sens 4.6, Mtb growth -2.6% and RecA intein inh -1.1.
For CCc1ccc(/C=C\C(=O)N2CCc3ccccc3C2)cc1 the results were Mtb bLac sens 11.2, YopH PTP inh -24.8, RecA intein inh 5.0 and Arbovirus anti -6.6.
`Cc1ccc(C(=O)N2CCN(c3nc4ccccc4n3C)CC2)cc1` gave Mtb bLac sens -2.1 and RecA intein inh -0.4.
`CCOc1ccc(C(=O)CCC(=O)N(CC)CC(=O)NCc2cccs2)cc1` gave Mtb bLac sens -10.4 and RecA intein inh 1.4.
Screening O=C(NC1CCSC1=O)C1CC(=O)N(c2ccc(F)cc2)C1 (centres undefined) returned Mtb bLac sens -4.0 and RecA intein inh -1.4.
C/C(=N\N1CCCCCC1)c1c(O)n(-c2ccccc2)c(=O)[nH]c1=O was read as Mtb bLac sens -12.8, Mtb growth 4.8%, YopH PTP inh -30.9, RecA intein inh 6.9 and Arbovirus anti -5.8.
For O=C(CCn1c(=O)[nH]c2ccsc2c1=O)N1CCN(c2cccc(Cl)c2)CC1 the results were Mtb bLac sens 12.4, Mtb growth -5.4%, YopH PTP inh -5.3, RecA intein inh -4.3 and Arbovirus anti -36.4.
`CNC(=O)c1ccc(-c2ccc(OC)cc2)s1` gave Mtb bLac sens -9.9, Mtb growth 6.3%, YopH PTP inh -3.1, RecA intein inh 3.3 and Arbovirus anti -7.5.
O=C(Nc1ncc(Br)s1)C1CCCN1S(=O)(=O)c1cccc2cccnc12 (centres undefined) was read as Mtb bLac sens 15.1, Mtb growth -0.1%, YopH PTP inh 5.4 and Arbovirus anti -1.2.
`CCC(=O)Nc1ccc(C(=O)N/N=C/c2cc(Br)c(OC)cc2OC)cc1` gave Mtb bLac sens 5.0, Mtb growth 1.6%, YopH PTP inh -25.8, RecA intein inh 1.2 and Arbovirus anti -8.6.
COc1ccc(C(=O)OCC(=O)c2c(N)n(C)c(=O)n(C)c2=O)cc1OC was read as Mtb bLac sens 1.0, Mtb growth 2.1%, RecA intein inh -2.8 and Arbovirus anti -0.1.
Screening O=C(CN1CCc2ccccc2C1)NCc1ccco1 returned Mtb bLac sens 0.8, Mtb growth -4.7%, YopH PTP inh -5.8, RecA intein inh -0.1 and Arbovirus anti -1.5.
Screening CCn1c(SCC(=O)N2CCc3ccccc3C2)nc2sc(C)c(C)c2c1=O returned Mtb bLac sens -0.7, Mtb growth -2.3%, YopH PTP inh -8.6, RecA intein inh -3.0 and Arbovirus anti -9.6.
COc1ccc(CCNC(=O)CSC(=O)c2ccccc2)cc1OC was read as Mtb bLac sens -1.5, Mtb growth 5.5%, RecA intein inh 13.7 and Arbovirus anti 4.6.
O=C1c2ccccc2CCCC12N=NCC2c1cccc2ccccc12 (centres undefined) was read as Mtb bLac sens -9.5, YopH PTP inh -34.9, RecA intein inh 21.7 and Arbovirus anti 1.7.

Quoted at random: 5 compounds from above
COc1ccc(CCNC(=O)CSC(=O)c2ccccc2)cc1OC was read as Mtb bLac sens -1.5, Mtb growth 5.5%, RecA intein inh 13.7 and Arbovirus anti 4.6.
O=C1c2ccccc2CCCC12N=NCC2c1cccc2ccccc12 (centres undefined) was read as Mtb bLac sens -9.5, YopH PTP inh -34.9, RecA intein inh 21.7 and Arbovirus anti 1.7.
C/C(=N\N1CCCCCC1)c1c(O)n(-c2ccccc2)c(=O)[nH]c1=O was read as Mtb bLac sens -12.8, Mtb growth 4.8%, YopH PTP inh -30.9, RecA intein inh 6.9 and Arbovirus anti -5.8.
COc1ccc(C(=O)OCC(=O)c2c(N)n(C)c(=O)n(C)c2=O)cc1OC was read as Mtb bLac sens 1.0, Mtb growth 2.1%, RecA intein inh -2.8 and Arbovirus anti -0.1.
Screening CCn1c(SCC(=O)N2CCc3ccccc3C2)nc2sc(C)c(C)c2c1=O returned Mtb bLac sens -0.7, Mtb growth -2.3%, YopH PTP inh -8.6, RecA intein inh -3.0 and Arbovirus anti -9.6.

(listing goes on)
CCN(c1cccc(C)c1)S(=O)(=O)c1c(C)[nH]c(C)c1C(=O)N1CCCCC1 was read as Mtb bLac sens 7.5 and RecA intein inh -0.5.
`COc1ccc(CCNC(=O)CNC(=O)c2ccc3c(c2)OCO3)cc1OC` gave Mtb bLac sens -1.9 and RecA intein inh -0.3.
Screening O=C(COC(=O)c1ccccn1)NCCCc1ccccc1 returned Mtb bLac sens -17.3, Mtb growth 4.0%, YopH PTP inh -38.0, RecA intein inh -2.2 and Arbovirus anti -2.5.
`COc1cccc(-c2csc(N3CCN(C(=O)C4CCCCC4)CC3)n2)c1` gave Mtb bLac sens 4.1, YopH PTP inh 0.3, RecA intein inh 10.9 and Arbovirus anti -4.6.
For CC(=O)c1c(C)[nH]c(C(=O)NCc2cccc(Cl)c2)c1C the results were Mtb bLac sens 10.3, Mtb growth -6.8%, RecA intein inh -1.8 and Arbovirus anti -12.8.
CC1CC(C)CN(S(=O)(=O)c2ccc(C(=O)Nc3nnc(-c4cccs4)o3)cc2)C1 (centres undefined) was read as Mtb bLac sens 92.6, YopH PTP inh -11.4, RecA intein inh 7.7 and Arbovirus anti -18.9.
For COc1ccccc1-c1cn[nH]c1-c1ccc(OCc2ccc(F)cc2)cc1O the results were Mtb bLac sens 88.0, Mtb growth -4.1% and RecA intein inh 1.2.
`Cc1onc(-c2ccncc2)c1C(=O)O` gave Mtb bLac sens 1.2, Mtb growth -8.9%, YopH PTP inh -18.3, RecA intein inh -1.3 and Arbovirus anti 0.7.
CN1C2CCC1CC(NC(=O)CSc1ccc(Cl)cc1)C2 (centres undefined) was read as Mtb bLac sens -10.9, Mtb growth 2.5% and RecA intein inh -0.8.
Screening COc1cc(/C=N/NC(=O)Nc2cccc3nsnc23)cc(OC)c1OC returned YopH PTP inh -36.1, RecA intein inh -5.2 and Arbovirus anti -13.4.
For O=C(/C=C/c1ccccc1Cl)NC1CCS(=O)(=O)C1 (centres undefined) the results were Mtb bLac sens -2.9, Mtb growth -2.7%, RecA intein inh 1.8 and Arbovirus anti 0.9.
`CCc1ccccc1NC(=O)CNC(=O)c1ccccc1OCc1c(C)noc1C` gave Mtb bLac sens -10.8 and RecA intein inh 0.3.
Screening CCOC(=O)C(NC(C)=O)C(O)c1ccc([N+](=O)[O-])cc1 (centres undefined) returned Mtb bLac sens -6.1, Mtb growth -3.3%, RecA intein inh -0.2 and Arbovirus anti 12.9.
`c1ccc(OCCCCn2cnc3ccccc32)cc1` gave Mtb bLac sens 27.0, Mtb growth 0.1%, YopH PTP inh -3.2, RecA intein inh -2.5 and Arbovirus anti 14.2.
O=C(C(=O)N1CCOCC1)c1cn(CC(=O)N2CCCCC2)c2ccccc12 was read as Mtb bLac sens -11.9 and RecA intein inh -2.7.
For N#CNC(=Nc1ccc(Cl)cc1)Oc1ccccc1 the results were Mtb bLac sens 3.2, Mtb growth 2.5% and RecA intein inh -6.5.
Cc1ccccc1OCCC(=O)OCC(=O)NCCNC(=O)COC(=O)CCOc1ccccc1C was read as Mtb bLac sens -0.5 and RecA intein inh -1.3.
For O=C(C(=C1N(Cc2ccc(Cl)nc2)CCN1Cc1ccc(Cl)nc1)[N+](=O)[O-])C(Cl)Cl the results were Mtb bLac sens -6.0 and RecA intein inh 76.3*.
`CC(Oc1ccc(Br)cc1)C(=O)N1CCC(C(N)=O)CC1` (centres undefined) gave Mtb bLac sens -10.0, Mtb growth -1.8%, RecA intein inh -2.4 and Arbovirus anti -1.6.
CCn1c(CC(=O)Nc2ccc(C)c(Cl)c2)nnc1SCC(=O)Nc1nc(C)cs1 was read as Mtb bLac sens 37.0, Mtb growth -0.4%, YopH PTP inh -14.7, RecA intein inh -3.5 and Arbovirus anti -18.5.
O=C(NCC(c1ccco1)N1CCc2ccccc2C1)c1cccc(F)c1 (centres undefined) was read as Mtb bLac sens -5.8 and RecA intein inh 0.9.
Screening CN1CCN(C(=O)C2CCN(S(=O)(=O)c3ccc4c(c3)oc(=O)n4C)CC2)CC1 returned Mtb bLac sens -10.9, Mtb growth -2.7%, YopH PTP inh -48.3, Arbovirus anti 4.0 and Arbovirus anti repeat -3.6.
CCOC(=O)COn1c(-n2nc(C)cc2C)nc2ccccc2c1=O was read as Mtb bLac sens inconclusive and RecA intein inh -1.6.
For Cc1cccc(Nc2nc(-c3ccc(O)c(O)c3)cs2)n1 the results were Mtb bLac sens 2.4 and RecA intein inh 0.0.
CC1CCCCC1NC(=O)C1CCN(S(=O)(=O)N2CCCCCC2)CC1 (centres undefined) was read as Mtb bLac sens -12.4, Mtb growth -3.7%, YopH PTP inh -46.7, RecA intein inh -0.6 and Arbovirus anti 8.4.
Cc1cc(S(=O)(=O)Nc2cccc([N+](=O)[O-])c2)c(C)s1 was read as Mtb bLac sens 3.0 and RecA intein inh -2.0.

Not all compounds are listed, so the mix of outcomes need not match the whole.
